Screening results as filed in PubChem.
VDR inhibitor: vitamin D3 receptor (human) inhibition. 0.93% of 400,000 active. Potency, µM, without a hit: max response, negative = inhibition, usual class: inhibitors. P11473. VDR-SRC2-3 peptide fluorescence polarization, 2 h; active = well fitted inhibition curve with a large enough effect; inconclusive = small, poorly fitted or top-dose-only effect, or another doubt; inactive = no such curve, though single readings can be large or run the other way; also: series mostly up to about 120 µM
Target sequence (P11473 whole entry, looked up): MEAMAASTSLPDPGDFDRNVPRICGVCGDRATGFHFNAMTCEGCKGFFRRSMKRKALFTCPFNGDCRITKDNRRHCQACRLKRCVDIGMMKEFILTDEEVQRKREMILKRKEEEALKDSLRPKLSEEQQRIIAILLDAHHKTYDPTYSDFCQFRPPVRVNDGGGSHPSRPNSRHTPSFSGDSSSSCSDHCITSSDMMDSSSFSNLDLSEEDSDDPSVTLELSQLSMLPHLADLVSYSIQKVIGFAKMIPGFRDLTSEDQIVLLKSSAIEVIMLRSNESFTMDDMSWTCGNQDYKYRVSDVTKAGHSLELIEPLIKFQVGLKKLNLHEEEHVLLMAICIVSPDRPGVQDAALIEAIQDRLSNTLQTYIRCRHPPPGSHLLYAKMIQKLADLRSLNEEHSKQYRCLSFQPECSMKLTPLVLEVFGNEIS
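The screen uses fluorescence polarization to detect compounds that interfere with recruitment of the SRC2-3 coactivator peptide to VDR; plates are read after 2 h at room temperature.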
An asterisk follows results filed as active; ? = inconclusive; & = joins results of further samples; [ ] = remark or other dose. % is scaled to controls: 0 for no effect and ±100 for the full control effect; potency is read from the fitted curve at half-maximal effect. This is a subset, so the mix of outcomes need not match the whole.

VDR inhibitor,SMILES
-2.4%,CCc1ccc(-c2cc(C(=O)NN3CCOCC3)c3ccccc3n2)cc1
38.1%[activator],COc1ccc(-c2cc(C)no2)cc1S(=O)(=O)N(C)c1cccc(C)c1
-11.5%,CCOC(=O)N1CCC(N(CCN(C)C)C(=S)Nc2cc(C)cc(C)c2)CC1
-10.5%,O=S(=O)(c1ccccc1)N1N=C(c2ccccc2)CC1c1ccccc1 (stereo unspecified)
8.2%,O=C(CSc1ccc(-c2cccnc2)nn1)Nc1ccccc1
9.1%,CC(=O)Nc1ccc2c(c1)ncn2C
-16.5%,C=CCn1c(O)c(N=NC(=S)Nc2cccc(OC)c2)c2ccccc21
?,O=C(O)c1ccc2c(c1)C(=O)N(c1cccc(C(=O)/C=C/c3ccccc3)c1)C2=O
3.1%,Cn1c(=O)oc2cc(S(=O)(=O)NCc3ccccn3)ccc21
-15.1%,Cc1c(C(=O)NCc2ccc3c(c2)cc(C)n3C)cccc1[N+](=O)[O-]
-6.8%,CC1CCN(CC(=O)N2c3ccccc3CCc3ccccc32)CC1
-3.0%,CC(C)S(=O)(=O)CC(=O)c1ccc(Cl)cc1
-1.5%,CC1CCCCC1NC(=O)CSc1nnnn1C (stereo unspecified)
-14.0%,CCOc1cc(/C=C2\N=C(SC(C)C(N)=O)N(c3ccc(OC(F)F)cc3)C2=O)ccc1O (stereo unspecified)
-17.0%,CCNC(=O)c1ccc(CSc2ccc(Cl)cc2)cc1
3.2%,CC(=O)c1cccc(NC(=O)CC2S/C(=N/N=C3CCCCCC3)NC2=O)c1 (stereo unspecified)
-26.3%,O=C(Nc1ccc(C(=O)N2CCN(c3ccccn3)CC2)cc1)c1ccc(Br)o1
3.9%,O=C(C1CCN(S(=O)(=O)c2cnc[nH]2)CC1)N1CCN(c2ncccn2)CC1
-10.3%,O=C(NCCNc1ccc([N+](=O)[O-])cc1C(F)(F)F)c1ccccc1F
15.7%,CC1CCCCC1NC(=O)COC(=O)c1ccc2c(=O)n3c(nc2c1)CCC3 (stereo unspecified)
4.7%,COc1cc(NC(=O)c2cc(S(=O)(=O)N3CCCCC3)ccc2N2CCOCC2)cc(OC)c1
4.8%,COCCN1C=C(C(=O)OC)C(c2ccc(OC)c(OC)c2)C(C(=O)OC)=C1
9.8%,O=C(Nc1ccc(NC(=O)C2CC2)cn1)c1ccccc1
-11.4%,Cc1ccc(COC(=O)CCc2nc3ccccc3c(=O)[nH]2)cc1
-0.5%,CNS(=O)(=O)c1ccc2c3c(cccc13)C(=O)N2C
12.0%,CCn1c(N2CCN(CC(=O)Nc3cccc(C)c3C)CC2)nc2ccccc21
-10.4%,CCc1ccc(NC(=O)CN(C(=O)N2CCN(CC)CC2)S(=O)(=O)c2ccc(C)cc2)cc1
-12.9%,CC(C)(C)OC(=O)N1C=CCC1CN1C(=O)COCC1=O (stereo unspecified)
-16.3%,O=c1c(/C=N/O)coc2ccc3ccccc3c12
-8.3%,Cc1ccc(-n2ncc(C(=O)NCc3ccc4c(c3)OCO4)c2NC(=O)c2ccco2)cc1C
-16.9%,O=C(O)c1cc(S(=O)(=O)Nc2cccc3ccccc23)c(Cl)cc1Cl
-0.4%,CCN(CC)C(=O)Nc1c(C)n(C)n(-c2ccccc2)c1=O
23.4%,O=C(NCc1cccnc1)C1c2ccccc2C(=O)N1Cc1ccco1 (stereo unspecified)
-16.2%,O=c1cc(N2CCc3ccccc3C2)[nH]c(=O)n1-c1ccccc1Cl
-1.0%,Cc1nc(N2CCN(c3ccccn3)CC2)c2c(C)c(C(=O)Nc3ccc(Br)cc3C)sc2n1
-2.3%,CCN(Cc1cnn(C)c1)C(=O)c1ccc2nc(Cc3cccc(Cl)c3)oc2c1
2.2%,Cc1nc2cnc(Nc3ccccc3)nc2n(Cc2cccs2)c1=O
-6.9%,Cc1ccc(NC(=O)Cn2c(=O)oc3cc(S(=O)(=O)NCc4ccccc4)ccc32)cc1
0.1%,C=CCOn1c(=O)c(=O)n(OCc2ccccc2)c2ccccc21
6.4%,Cc1c(C(=O)O)[nH]c2c1C(=O)CC(c1ccccc1)C2 (stereo unspecified)
-19.8%,CCO[C@@H]1OC(C(=O)O)=C[C@H](c2coc3ccccc3c2=O)[C@H]1CCCO
16.7%,CCN1C(=O)[C@H]2[C@@H](c3ccc(SC4CCCCC4)cc3)N[C@@](CC(C)C)(C(=O)OC)[C@H]2C1=O
10.8%,COc1ccc(-c2cc(C(=O)NCCc3ccccc3)c3c(-c4ccccc4)[nH]nc3n2)cc1
-9.3%,COc1ccc(-n2nc(C(=O)NCC(=O)N3CCC(C)CC3)c3ccccc3c2=O)cc1Cl
-16.6%,NC(=O)NC(CC(=O)Nc1cccnc1)c1cccc(Br)c1 (stereo unspecified)
8.9%,CCCn1nnnc1NCc1ccc(F)cc1
-26.5%,CO/N=C(\C(=O)N[C@@H]1C(=O)N2C(C(=O)O)=C(COC(N)=O)CS[C@H]12)c1ccco1
6.7%,O=C1C=C(c2ccccc2)C(O)(c2ccccc2)C1 (stereo unspecified)
20.5%,CC(=O)N1c2ccc(S(=O)(=O)N3CCC(C(=O)Nc4ccc(C)cn4)CC3)cc2CC1C (stereo unspecified)
-0.5%,COc1cc(C(=O)n2nc(C)c(Sc3ccc(Cl)cc3)c2C)cc(OC)c1OC

Other entries follow.
VDR inhibitor,SMILES
11.0%,O=C(Nc1ccc(S(=O)(=O)N2CCOCC2)cc1)c1ccc([N+](=O)[O-])s1
7.1%&17.8%,O=C(Cn1cccc1C(=O)c1ccccc1)NCc1ccc(F)cc1
?,O=C(Cc1cccc2ccccc12)Nc1ccc(O)cc1C(=O)O
-27.6%,Cc1ccc(NS(=O)(=O)c2cccc(C(=O)NC3CCN(Cc4ccccc4)CC3)c2)c(C)c1
-26.4%,Cc1ccc2c(c1)C1CC(C)(O2)N(c2cccc(C(=O)NC3CCN(Cc4ccccc4)CC3)c2)C(=O)N1 (stereo unspecified)
15.1%,O=C(COC(=O)c1ncc(Cl)c(Cl)c1Cl)NC1CCCCCC1
-0.1%,O=C(O)CCCN1C(=O)C2C3C=CC(C2C1=O)C1C(=O)N(CCCC(=O)O)C(=O)C31 (stereo unspecified)
-4.2%,CCCCSc1nnc2c(n1)OC=Nc1ccccc1-2
18.0%,Cc1ccc(-c2nnn(CC(=O)N(CCN3CCOCC3)C(C(=O)NC(C)(C)C)c3ccco3)n2)cc1 (stereo unspecified)
2.1%,Cc1ccccc1OCC(=O)OC(C(=O)c1ccccc1)c1ccccc1 (stereo unspecified)
?,CN(C)c1ccc(NC(=O)CSc2nc(N)c(C(=O)Nc3ccc(N(C)C)cc3)s2)cc1
-11.1%,O=C(O)CC(c1ccc(Br)cc1)N1Cc2ccccc2C1=O (stereo unspecified)
-9.0%,Cc1cc2c(cc1S(=O)(=O)N1CC(C)CC(C)C1)OCC(=O)N2 (stereo unspecified)
-2.5%,Cc1ccc(OCC(=O)N/N=C\c2cccn2C)c([N+](=O)[O-])c1
-25.1%,CCOC(=O)c1cc2c(=O)n3ccccc3nc2n(Cc2ccco2)c1=NC(=O)c1ccc(OCC)cc1
11.5%,COCCNc1c2c(nc3c(-c4ccccc4)c(C)nn13)CCC2
4.3%,CC1=C(C(=O)OC(C)C)C(c2ccc(O)cc2)NC(=O)N1 (stereo unspecified)
-9.1%,COc1cc([N+](=O)[O-])ccc1NC(=O)CCCOc1cccc(C)c1
-13.7%,COc1ccc(N2C(=O)CCC(C(=O)Nc3cccc(C)n3)C2c2ccc(OC)c(OC)c2)cc1 (stereo unspecified)
3.9%,Cc1ccccc1N1CCN(C2CCCN(C(=O)CCc3c(C)noc3C)C2)CC1 (stereo unspecified)
1.5%,Cc1ccc2oc(=O)c3cnn(CC(=O)NCCCOC(C)C)c3c2c1
?,CC(C(=O)N=Nc1c(O)[nH]c2ccccc12)n1cnc2ccccc2c1=O (stereo unspecified)
7.0%,CC(C)C[C@H](NC(=O)c1ccc(OC2CCN(C(=O)C3CC3)CC2)cc1)C(N)=O
-5.0%,COc1ccc(/C=N/NC(=S)Nc2cccc(C(=O)O)c2)cc1
1.8%,CC(C)Oc1ccc(/C=N/NC(=O)c2ccc(N(Cc3ccccc3)S(C)(=O)=O)cc2)cc1

Seven compounds picked at random from those above:
VDR inhibitor,SMILES
-9.0%,Cc1cc2c(cc1S(=O)(=O)N1CC(C)CC(C)C1)OCC(=O)N2 (stereo unspecified)
-5.0%,COc1ccc(/C=N/NC(=S)Nc2cccc(C(=O)O)c2)cc1
1.5%,Cc1ccc2oc(=O)c3cnn(CC(=O)NCCCOC(C)C)c3c2c1
-9.1%,COc1cc([N+](=O)[O-])ccc1NC(=O)CCCOc1cccc(C)c1
?,CC(C(=O)N=Nc1c(O)[nH]c2ccccc12)n1cnc2ccccc2c1=O (stereo unspecified)
1.8%,CC(C)Oc1ccc(/C=N/NC(=O)c2ccc(N(Cc3ccccc3)S(C)(=O)=O)cc2)cc1
11.0%,O=C(Nc1ccc(S(=O)(=O)N2CCOCC2)cc1)c1ccc([N+](=O)[O-])s1

(listing goes on)
VDR inhibitor,SMILES
16.7%,O=c1[nH]c2ccc(NCc3ccc(-c4ccc(Cl)cc4)o3)cc2[nH]1
-4.6%,O=C(COC(=O)C1CC(=O)N(Cc2ccco2)C1)Nc1ccc(F)cc1F (stereo unspecified)
-17.4%,CC(OC(=O)Cc1ccc(F)cc1)C(=O)N1CCc2ccccc21 (stereo unspecified)
-17.0%,C#Cc1ccc([C@H]2C=C(C(=O)Nc3ccccc3)O[C@@H](OCc3ccc(CO)cc3)C2)cc1
-12.4%,Cc1sc2ncn(CC(=O)N3CCN(c4ccccn4)CC3)c(=O)c2c1S(=O)(=O)N1CCCCC1
-8.8%,CCc1c(C)sc(NC(=O)c2cc(-c3ccc(OC)cc3)on2)c1C#N
11.5%,Cc1ccc(CCNC(=O)CCCn2c(=O)c3ccccc3n(CC(=O)Nc3cc(Cl)ccc3C)c2=O)cc1
-6.3%,CC1(C)Cc2c(C#N)c(N3CCN(C(=O)c4ccco4)CC3)nc(Cc3ccccc3)c2CO1
-3.0%,Clc1ccc(N2CCN(/N=C/c3cccnc3)CC2)cc1
-26.0%,Cc1ccc(C2=CC(=O)C[C@H](c3ccc(F)cc3)C2)cc1
-17.0%,CN(C)c1oc(-c2ccco2)nc1S(=O)(=O)c1ccc(Br)cc1
-9.2%,CN(CC(=O)Nc1ccc(N2CCOCC2)cc1)C(=O)c1ccc(CS(C)(=O)=O)cc1
-8.7%,CC(=O)c1c(C)[nH]c(C(=O)NNC(=O)COc2cc(C)cc(C)c2)c1C
2.5%,O=C(CN1CCCC1c1cccs1)Nc1cc(S(=O)(=O)N2CCCC2)ccc1Cl (stereo unspecified)
-9.7%,CCN(C(=O)Cn1c(=O)n(CCCS(=O)(=O)C2CCCCC2)c(=O)c2ccccc21)c1cccc(C)c1
2.7%,Cc1ccccc1C(=O)NNC(=O)c1cccn1C
-0.4%,CCNCCNc1ccc(Cl)cc1[N+](=O)[O-]
-2.9%,Cc1c(-c2ccccc2)nc2c(Cl)cccc2c1C(=O)OCC(=O)c1ccc(F)cc1
-2.3%,COc1ccc(C(c2nnnn2C(C)(C)C)N2CCN(C)CC2)cc1OC (stereo unspecified)
-12.8%,Cc1ccc(NC(=O)c2ccc(Cl)nc2)cc1S(=O)(=O)N1CCOCC1
-6.5%,CCc1c(C)nc(SCCOc2ccc(OC(C)C)cc2)[nH]c1=O
17.5%,COc1ccc(CCN(C)Cc2ccc(C(=O)Nc3ccccc3)cc2)cc1OC
16.1%,COc1ccc(OC)c(CC2C(=O)Nc3ccc(Br)cc32)c1 (stereo unspecified)
-5.8%,COCCCNC(=O)c1cc(S(=O)(=O)N2CCOCC2)ccc1SCc1cccc(OC)c1OC
6.1%,O=C(NC1CCCCCC1)c1nnc(Cc2ccc(Cl)cc2)o1
?,C/C(=N\NC(=O)c1cccc(N/N=C(\C)c2ccccc2)c1)c1ccccc1
5.4%,COc1ccccc1N(Cc1ccccc1)S(=O)(=O)c1cccc(C(=O)NCC2CCCO2)c1 (stereo unspecified)
-11.5%,O=C(O)c1ccc2c3c(ncnc13)-c1ccccc1C2=O
-4.7%,Brc1cccc(CNCC2CCCO2)c1 (stereo unspecified)
2.8%,CCOC(=O)C1(Cc2cccc(OC)c2)CCN(Cc2csc(C(C)=O)c2)CC1
-0.5%,Cc1nc(-c2ccccn2)nc(N(C)c2ccccc2)c1Cl
28.6%,Cc1ccc(O)c(-c2[nH]ncc2C(=O)c2ccc(Cl)cc2)c1
79.4µM*,S=C(Nc1ccccc1)N1N=C(c2cccs2)CC1c1cccs1 (stereo unspecified)
-6.6%,CC1=CC(c2ccc(Cl)cc2)n2nc(NC(=O)CCC(=O)O)nc2N1 (stereo unspecified)
-5.8%,CCOC(=O)C1CCN(C(=O)c2cccnc2)CC1
-7.3%,COc1ccc(NC(=O)Cc2c(C(=O)O)n(C)c3ccccc23)cc1OC

An excerpt from above in order of the VDR inhibitor value, low to high:
VDR inhibitor,SMILES
-11.5%,O=C(O)c1ccc2c3c(ncnc13)-c1ccccc1C2=O
-7.3%,COc1ccc(NC(=O)Cc2c(C(=O)O)n(C)c3ccccc23)cc1OC
-6.6%,CC1=CC(c2ccc(Cl)cc2)n2nc(NC(=O)CCC(=O)O)nc2N1 (stereo unspecified)
-5.8%,CCOC(=O)C1CCN(C(=O)c2cccnc2)CC1
-0.5%,Cc1nc(-c2ccccn2)nc(N(C)c2ccccc2)c1Cl
28.6%,Cc1ccc(O)c(-c2[nH]ncc2C(=O)c2ccc(Cl)cc2)c1
